# High-throughput results deposited in PubChem by Johns Hopkins Ion Channel Center.
# KCNQ2 enhance: potentiators of rat KCNQ2 potassium channel; O88943; B-score at 10 µM; 310,000 compounds, 0.54% hits; CHO-K1 KCNQ2, FluxOR thallium flux fluorescence; hits give high values; AID 2239;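 active = fluorescence ratio B-score at least 3 SD of library B-scores, with initial fluorescence B-score within 3 SD, cut at about 5.3 in these data; same plate scores as AID 2156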;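 also: B-score of peak minus minimum over baseline fluorescence ratio after K+ and Tl+ stimulus; positive B-score means potentiation of KCNQ2 with more thallium influx and brighter signal; only the inactives scoring about 0 or higher are listed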
# Target sequence (O88943 whole entry, looked up): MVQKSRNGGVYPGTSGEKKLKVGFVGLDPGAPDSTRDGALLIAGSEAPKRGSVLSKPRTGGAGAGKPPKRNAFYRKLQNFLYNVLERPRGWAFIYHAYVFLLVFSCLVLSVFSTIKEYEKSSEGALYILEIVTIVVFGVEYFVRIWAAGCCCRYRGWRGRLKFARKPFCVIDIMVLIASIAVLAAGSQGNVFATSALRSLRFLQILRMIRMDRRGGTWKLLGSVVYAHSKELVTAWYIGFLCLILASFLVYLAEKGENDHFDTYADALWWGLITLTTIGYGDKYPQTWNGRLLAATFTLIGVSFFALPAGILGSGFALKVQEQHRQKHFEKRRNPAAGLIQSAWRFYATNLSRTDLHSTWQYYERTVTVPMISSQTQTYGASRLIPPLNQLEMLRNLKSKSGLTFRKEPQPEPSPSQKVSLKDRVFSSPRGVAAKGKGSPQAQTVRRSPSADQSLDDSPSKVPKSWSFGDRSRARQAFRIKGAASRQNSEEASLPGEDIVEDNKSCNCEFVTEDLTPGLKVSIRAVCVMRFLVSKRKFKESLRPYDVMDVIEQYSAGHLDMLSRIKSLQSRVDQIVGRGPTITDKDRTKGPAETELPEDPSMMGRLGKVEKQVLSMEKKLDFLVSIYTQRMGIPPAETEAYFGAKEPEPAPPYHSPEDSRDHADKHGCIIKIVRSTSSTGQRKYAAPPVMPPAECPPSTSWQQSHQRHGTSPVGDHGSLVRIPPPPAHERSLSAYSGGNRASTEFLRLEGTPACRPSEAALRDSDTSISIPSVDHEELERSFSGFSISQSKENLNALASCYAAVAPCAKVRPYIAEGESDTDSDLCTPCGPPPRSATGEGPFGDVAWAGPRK
# KCNQ2 enhance baseline: further read-out of KCNQ2 enhance, marked with its call; B-score; compound at 10 µM; measured here: initial fluorescence intensity artifact check;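 brightness before thallium and not channel activity; 0 = typical well and far values either way flag optical interference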
# The depositor's hits bear a star. Some of the compounds tested, so the mix of outcomes need not match the whole.
compound | KCNQ2 enhance | KCNQ2 enhance baseline
O=[N+]([O-])c1cc2c(cc1/C=N\NS(=O)(=O)c1ccccc1)OCO2 | 1.3 | 0.29
O=c1oc2ccccc2c2c1nc(C(F)(F)F)n2-c1ccccc1 | 1.5 | 1.6
COc1ccc(Cn2cc(C(=O)c3ccccc3)c(=O)c3cc(OC)ccc32)cc1 | 1 | -0.19
CCOC(=O)c1c(NC(=O)c2cc(C)on2)c2cc([N+](=O)[O-])ccc2n1C | 0.18 | 0.21
CCOC(=O)C1CCCN(C(=O)Cn2sc3nc(C)cc(C)c3c2=O)C1 (stereo not given) | 1.2 | -0.12
CCOC(=O)CSc1nnc(CNC(=O)c2cccc(C)c2)n1-c1ccccc1OC | 0.36 | -2.7
CCn1c(CNC(=O)COc2ccc(C(C)C)cc2)nnc1SCC(=O)Nc1ccccc1C(C)C | 0.55 | 1.5
CSc1ccccc1NC(=O)CSc1nnc(CNC(=O)c2ccccc2F)n1C | 0.01 | 0.56
CCOC(=O)c1c(C)nc2c(c1-c1ccccc1)C(=O)CCC2 | 0.22 | -1.2
COc1ccc2c(COC(=O)c3n[nH]c4ccccc34)cc(=O)oc2c1 | 0.39 | -0.23
CN(NC(=O)c1ccco1)c1nc2ccccc2nc1C(F)(F)F | 1.4 | 0.22
CCCCN1C2CCCC1CC(NC(=O)c1cccc(Cl)c1)C2 (stereo not given) | 0.82 | 0.51
Cc1cc(=O)[nH]c(SCCCOc2ccccc2Cl)n1 | 0.77 | -0.31
CCC(c1nnc(SCC(=O)Nc2c(F)cccc2F)n1Cc1ccccc1)N(C)C (stereo not given) | 0.25 | -0.39
C=C(Cl)COc1ccc2c(C)cc(=O)oc2c1 | 2.4 | 0
CC(=O)N1N=C(c2cccc(NS(C)(=O)=O)c2)CC1c1cccs1 (stereo not given) | 0.7 | 0.28
CCc1ccc(-c2ccc(C(=O)C(F)(F)F)[nH]2)cc1 | 2.3 | -2.4
CC[n+]1c(C)n(-c2ccccc2)c2ccc(C(=O)OC)cc21 | 0.12 | 0.44
CC(=O)Nc1ccc(S(=O)(=O)N2CCN(C(=O)N3CCCCCC3)CC2)cc1 | 0.82 | 0.6
COc1cc(/C=C/CN2CCC(CO)(CC3CCCCO3)CC2)ccc1O (stereo not given) | 0.36 | -1.3
Cc1cc(NC(=O)COC(=O)[C@H](C)NC(=O)c2ccccc2)no1 | 0.16 | -1.4
COC(=O)CCc1c(C)nc(N)[nH]c1=O | 0.76 | 2.5
O=c1[nH]c(=S)c2ncn(-c3ccccc3)c2[nH]1 | 0.46 | 0.78
CCCCOc1ccc(/C=N/NC(=S)Nc2cccc(C)c2C)cc1 | 1.1 | -0.43
Cc1cc(=O)[nH]c(SCC(=O)OCc2ccccc2)c1C#N | 1.2 | -0.81

# Next entries:
compound | KCNQ2 enhance | KCNQ2 enhance baseline
O=C(c1cccc(C(F)(F)F)c1)N1CCC(O)(CS(=O)(=O)Cc2ccc(Cl)cc2)CC1 | 0.05 | -0.35
O=S(=O)(NCC(Nc1ccc(Cl)cc1)c1ccccc1)c1ccc(Cl)cc1 (stereo not given) | 0.55 | -0.1
CNc1nc(C)c(C(C)=O)cc1C#N | 1 | 0.68
CCc1ccc(NC(=S)Nc2cc(OC)c(NC(=O)C(C)C)cc2OC)cc1 | 1.4 | -0.05
CC(=O)NS(=O)(=O)c1ccc(NC(=S)NC(=O)C2CCC2)cc1 | 0.99 | 0.04
CC(C)(C)c1ccc(/C=N/NC(=O)Cc2c[nH]c3ccccc23)cc1 | 1.9 | 0.34
COC(=O)c1c(C)c[nH]c1C | 0.1 | 0.75
S=c1[nH]nc(-c2ccco2)n1/N=C/c1ccccc1 | 0.15 | 0.36
Cc1ccc(N/N=C/c2cccnc2)cc1 | 1.9 | -1.1
CCCCn1c(O)c(N=NC(=O)c2ccco2)c2ccccc21 | 0.04 | 0.09
Cc1ccc(/C=N/N2CCCCC2)o1 | 0.07 | -1.2
CCOC(=O)C(CC)Sc1nnc2cc(C)c3ccccc3n12 (stereo not given) | 0.01 | 0.93
CC(=O)Nc1ccc(S(=O)(=O)Oc2ccc(/C=N/N=C3/NC(=O)C(CC(=O)O)S3)cc2)cc1 (stereo not given) | 0.66 | -1.7
C=CCN1C(=O)/C(=C\c2cccs2)C(C(=O)OC)=C1C | 0.15 | -0.27
CCc1nn2c(=O)cc(CSCC(=O)Nc3ccccc3F)nc2s1 | 0.46 | -0.71
C#CCN1C(=O)S/C(=C\c2ccc(-c3ccc(Cl)c(C(=O)O)c3)o2)C1=O | 2.5 | -1.5
OC(CN1C2=NCCCN2c2ccccc21)c1ccc(Cl)cc1 (stereo not given) | 0.08 | -1.6
CCC(Sc1nc(C)cc(C)n1)C(=O)O (stereo not given) | 6.2* | -1*
O=C(COc1ccc(Br)cc1)Nc1ccccc1C(=O)N1CCOCC1 | 1.6 | 0.85
O=C(NCc1ccncc1)C(=O)N/N=C/c1ccccn1 | 0.42 | 0.06
CCN1CCN(c2cc(C)c3cc(NC(=S)N4CCCC(C)C4)ccc3n2)CC1 (stereo not given) | 0.08 | -0.21
C/C(=N/NC(=O)c1ccoc1C)C12CC3CC(CC(C3)C1)C2 | 0.51 | 0.01
CC(C)OC(=O)c1sc2nc3c(cc2c1N)C(=O)CCC3 | 0.12 | 0.39
O=C(c1ccccc1)C1CCN(C(=O)C2CCC(=O)N(Cc3cccc(F)c3)C2)CC1 (stereo not given) | 0.64 | -0.97
O=C1COc2ccc(S(=O)(=O)N3CCC(C(=O)NCc4ccc(F)cc4)CC3)cc2N1 | 1.6 | -0.67

# The list goes on:
compound | KCNQ2 enhance | KCNQ2 enhance baseline
CCOC(=O)c1ccc(NC(=O)c2c(C)[nH]c(C(=O)OCC)c2C)cc1 | 0.1 | -0.94
Cn1c(NC(=O)c2cc(Cl)ccc2Cl)cc(=O)n(C)c1=O | 0.65 | 0.89
COc1ccc(N2CCN(C(=O)CCCC3=NS(=O)(=O)c4ccccc4N3)CC2)cc1 | 0.67 | 0.64
O=C(NCCCO)c1cc2ccccc2[nH]1 | 0.07 | -0.89
CCN1CCCC1Cn1cnc2c([nH]c3ccc(Cl)cc32)c1=O (stereo not given) | 1 | -1.9
O=C(CCCCCN1C(=O)C2C3C=CC(C3)C2C1=O)Nc1nccs1 (stereo not given) | 0.02 | -0.04
COCCN1Cc2cccc(C(=O)Nc3ccc(S(=O)(=O)N4CCCCC4)cc3)c2C1=O | 0.9 | 0.34
COc1cc([N+](=O)[O-])ccc1NC(=S)Nn1cnnc1 | 0.14 | -0.4
CC12CCC(C(=O)N3CCCc4ccccc43)(CC1=O)C2(C)C (stereo not given) | 0.75 | 1.6
O=C(CCNC(=O)c1ccc([N+](=O)[O-])cc1)NCCc1ccccc1 | 0.46 | 1.9
Cc1ccccc1Nc1nnc(SCC(=O)c2c(N)n(C)c(=O)n(C)c2=O)s1 | 0.05 | 1.1
Cc1nnc(SCC(=O)NC(=O)NC(C)C)s1 | 1 | 0.32
O=C1CC(N2CCN(Cc3ccc(Cl)cc3)CC2)C(=O)N1CCc1ccccc1 (stereo not given) | 5.8* | 0.69*
CC1CC(=O)c2cnc(N3CCOCC3)nc2C1 (stereo not given) | 0.74 | -1.6
CN(C)c1ccc(NS(=O)(=O)c2ccc(Cl)cc2)cc1 | 1.2 | -0.03
Cc1ccc(NS(=O)(=O)c2cn(C)c(=O)n(C)c2=O)c(C)c1 | 2.5 | -1.9
COc1ccc(NC(=O)CN2CCCCC2)c([N+](=O)[O-])c1 | 0.94 | 0.01
CC(NC(=O)c1cc2cc(F)ccc2[nH]1)c1ccccc1 (stereo not given) | 0.49 | 0.79
O=C(NCc1cccs1)c1nn2cccnc2c1Cl | 0.93 | 0.23
Cn1cc(S(=O)(=O)NCCc2ccccc2)c(=O)n(C)c1=O | 0.1 | 1.4
O=C(Cc1ncon1)Nc1ccc(F)c(F)c1F | 0.43 | 0.62
O=C(Nc1ccc2c(c1)OCCO2)C1CCN(S(=O)(=O)c2ccc3c(c2)OCCO3)CC1 | 0.02 | -0.73
CCOC(=O)C1C(=O)NC(N2CCOCC2)=NC1c1ccco1 (stereo not given) | 1.5 | 1.2
CCCSCCCNC(=O)c1ccc(C)c(NC(=O)C2=C(C)OCCS2)c1 | 0.59 | 0.01
CC1(C)CC(=O)C=C(NCCN2CCN(C(=O)Nc3ccccc3)CC2)C1 | 1.1 | -0.39

# (next part)
mol | KCNQ2 enhance | KCNQ2 enhance baseline
N#Cc1ccccc1NC(=O)CSc1cn[nH]n1 | 0.29 | 1.6
Cc1ccc(N)cc1NC(=O)CN1CCOCC1 | 1.5 | -0.37
COC(C)(C)[C@H](O)COc1c2ccoc2cc2oc(=O)ccc12 | 1 | 1
CCOc1ccccc1CNC(=O)C1CCN(c2nnc(C)c3c(C)n(-c4ccc(C)cc4)nc23)CC1 | 0.11 | -0.09
CNCC(=O)N1CCN(c2ncc(C(F)(F)F)cc2Cl)CC1 | 0.24 | -0.01
Cc1ccc(/C=N/NC(=O)c2ccc(NC(=O)c3ccc(Cl)cc3)cc2)o1 | 1.1 | -0.5
Cc1cccc(NC(=S)N/N=C(\c2ccccc2)C(C)C)c1 | 0.4 | 1.3
CCOc1ccc(S(=O)(=O)N2CCOCC2)cc1NC(=O)CN1C(=O)NC(C)(c2ccccc2)C1=O (stereo not given) | 0.63 | 0.01

# Following part.
mol | KCNQ2 enhance | KCNQ2 enhance baseline
COc1ccc(/C=N/NC(=O)c2ccc(Cn3cc([N+](=O)[O-])cn3)o2)c(OC)c1C | 1.8 | -1.1
O=C(O)c1ccc(CSc2nc3ccccc3o2)cc1 | 0.58 | -0.12
C=CCN1C(=O)C(Cc2ccc(SC(F)F)cc2)SC1=Nc1ccc(C(=O)O)cc1 (stereo not given) | 0.82 | -0.02
O=C1c2ccccc2C(=O)N1OCCOCCOCCBr | 0.45 | -0.24
COc1ccc(OCCOC(=O)c2ccc(-n3cnnn3)cc2)cc1 | 0.72 | -1.2
COc1ccc(NC(=O)C(NC(=O)CC2NC(=O)NC2=O)c2ccccc2)cc1 (stereo not given) | 2.1 | -0.31
COc1ccccc1C(=O)N(NC(=O)Oc1ccccc1)C(C)(C)C | 0.6 | -0.04
CCN(C(C)=O)c1nc(CSc2nnc(NC(C)C)s2)cs1 | 0.15 | 0.11

# (cont.)
mol | KCNQ2 enhance | KCNQ2 enhance baseline
CCCC(=O)N1CCN(c2nc3ccccc3s2)CC1 | 2.9 | 0.66
O=S1(=O)CCN(C(CO)c2ccccc2)CC1 (stereo not given) | 1.1 | 0.12
COc1cc(OC)cc(-c2cc(NC(C)=O)n[nH]2)c1 | 1.2 | -0.08
COc1ccc(-c2ccc(NS(=O)(=O)c3cccc([N+](=O)[O-])c3)cc2)nn1 | 0.53 | -0.07
CCN(CC)S(=O)(=O)c1ccc(NC(=O)c2cnccn2)cc1 | 0.49 | 2.6
COc1ccc(C(NC(=O)C(C)C)c2c(O)ccc3ccccc23)cc1 (stereo not given) | 0.38 | -0.68
COc1ccc(OC)c(S(N)(=O)=O)c1 | 0.01 | -1.7
O=C(N/N=C\c1ccc(OC(=O)c2ccco2)cc1)c1ccc(Cl)cc1 | 0.08 | -0.44

# Further records.
mol | KCNQ2 enhance | KCNQ2 enhance baseline
CC(=O)c1cc2c(=O)c3cc(C)ccc3oc2nc1C | 2.4 | -0.03
Cc1cc(Br)ccc1NC(=O)CNC(=O)Cc1ccc(S(=O)(=O)N2CCOCC2)s1 | 0.02 | 0.31
CCCc1nnc(NC(=O)CSc2nc3ccccc3[nH]2)s1 | 2.4 | 0.21
Cc1ccc(NC(=O)CN2C(=O)NC3(CCCC3)C2=O)nc1 | 0.78 | -2.3
CCc1ccc(C(C)NC(=O)C2(C)CC2(Br)Br)cc1 (stereo not given) | 0.22 | 2.5
Cc1c(NC(=O)CCSc2ccc(Cl)cc2)c(=O)n(-c2ccccc2)n1C | 0.12 | 0.38
COc1cc(CC(=O)NCc2ccccn2)cc(OC)c1OC | 0.53 | 0.84
O=C(NC1CCN(S(=O)(=O)c2cccc(F)c2)CC1)c1cccc(F)c1 | 0.95 | -0.05

# 6 structures out of the list, arranged by number of heavy atoms, ascending.
mol | KCNQ2 enhance | KCNQ2 enhance baseline
CC(=O)c1cc2c(=O)c3cc(C)ccc3oc2nc1C | 2.4 | -0.03
Cc1ccc(NC(=O)CN2C(=O)NC3(CCCC3)C2=O)nc1 | 0.78 | -2.3
COc1cc(CC(=O)NCc2ccccn2)cc(OC)c1OC | 0.53 | 0.84
O=C(N/N=C\c1ccc(OC(=O)c2ccco2)cc1)c1ccc(Cl)cc1 | 0.08 | -0.44
Cc1c(NC(=O)CCSc2ccc(Cl)cc2)c(=O)n(-c2ccccc2)n1C | 0.12 | 0.38
Cc1cc(Br)ccc1NC(=O)CNC(=O)Cc1ccc(S(=O)(=O)N2CCOCC2)s1 | 0.02 | 0.31

# Later entries:
mol | KCNQ2 enhance | KCNQ2 enhance baseline
CC(C)CCN1CCNC(=O)C1CC(=O)Nc1ccc(F)cc1 (stereo not given) | 1.5 | 0.01
COCCNC(=O)/C(C#N)=C/c1cc(C(C)C)c(OC)cc1C | 0.64 | 0.03
O=C(NCc1ccc2c(c1)OCO2)NC12CC3CC(CC(C3)C1)C2 | 25* | -0.78*
COc1ccc(N2CCN(CCNC(=O)CCN3C(=O)COc4ccccc43)CC2)cc1 | 0.89 | 0.81
CCN(CC)CCNC(=O)/C(=C/c1cn(CC)c2ccccc12)NC(=O)c1cc(OC)c(OC)c(OC)c1 | 0.08 | 0.74
Cc1ccc(Cn2c(C(C)Nc3nc(-c4ccc(F)cc4)cs3)nc3cc(Cl)c(Cl)cc32)cc1 (stereo not given) | 0.51 | 0.9
Cc1sc2ccccc2[n+]1CC(=O)c1ccccc1 | 0.08 | 1.3
O=C(c1ccc(Br)o1)N1CCN=C1SCc1cccc(F)c1 | 0.1 | 0.2
CCOc1ccc(-c2cc(C(=O)N/N=C/c3ccc(O)cc3)c3ccccc3n2)cc1 | 0.06 | 2.6
COc1ccc(CNC(=O)CN2C(=O)NC(C)(c3cccc4ccccc34)C2=O)cc1OC (stereo not given) | 1.8 | -1.2
